Hedgehog inh: Hedgehog pathway signaling inhibitors, primary screen, luminescence, Shh-LIGHT2 cells, Gli-luciferase; 22,000 compounds, 2.1% hits; Shh-LIGHT2 Gli-luciferase reporter, 30 h; AID 2313, 2010; inhibition, % (test concentration not listed);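 active = replicate mean of 65% or more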;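 note: pathway switched on by Shh-conditioned medium diluted 1 in 25 in low serum; 100 nL library stock added to about 40 µL; 0% = median of neutral wells and 100% = positive control level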
PD-1 reverse act: activators reversing PD-1 mediated T-cell inhibition, primary screen, luminescence, primary human CD4 T cells, PD-L1 beads | CellTiter-Glo 96 h | activation, % (no concentration beside the values) | 29,000 tested, under 10 active | AID 2316, 2010;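 active = replicate mean of 50% or more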;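 note: 0% = median vehicle wells and 100% = positive control; 100 nL library stock added to about 50 µL; numbers are from one replicate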
YB-1 expr inh: inhibitors of YB-1 gene expression, primary screen, cell-based, fluorescence; 30,000 compounds, 0.37% hits; delta delta Cp (YB-1 minus CDIP) (no concentration beside the values); AID 434959, 2010; U2OS, qRT-PCR YB-1 vs CDIP delta delta Cp, 16 h; hits give high values; zero = DMSO, each unit about twofold;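 active = delta delta Cp rounded down to an integer at or above 3, about 3 SD of DMSO wells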;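 note: higher means less YB-1 transcript or more CDIP transcript relative to DMSO; stock transfer was 100 nL into about 100 µL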
MITF inh: inhibitors of MITF, primary screen, MITF inhibitor project, cell-based, luminescence | 37,000 compounds, 0.28% hits | TRPM1 promoter luciferase, 24 h | inhibition, % (test concentration not listed);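 active = most replicates at 85% or more, or half of them and the mean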;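 note: human melanocyte line stably carrying TRPM1 promoter luciferase reporter; 0% = vehicle wells and 100% = a positive control; the first replicate is given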
* hit, by the source's call; x = no result given. Some of the compounds tested; the hit share may differ from the screen's.

SMILES | Hedgehog inh | PD-1 reverse act | YB-1 expr inh | MITF inh
COc1ccc(CN(C)C[C@H]2Oc3ccc(NC(=O)Nc4ccc(F)cc4)cc3C(=O)N([C@@H](C)CO)C[C@@H]2C)cc1 | x | x | -0.041 | -14
O=C(O)c1cc(=O)c2ccc(Cl)cc2[nH]1 | -62 | x | -0.25 | 24
COc1ccc(C(=O)Nc2ccccc2C(=O)NC(C(=O)O)C(C)C)cc1 (configuration not stated) | x | 1.5 | x | -10
CSc1cccc(NC(=O)c2cc3c(ccc4ccccc43)o2)c1 | -102 | 0.6 | -0.1 | -20
COc1ccc([N+](=O)[O-])cc1N(CC(=O)Nc1cccc(C(F)(F)F)c1)S(C)(=O)=O | x | 2.8 | x | -19
COc1ccc(S(=O)(=O)N(C)C[C@@H]2Oc3ccc(NS(=O)(=O)c4cn(C)cn4)cc3CC(=O)N([C@H](C)CO)C[C@@H]2C)cc1 | -4 | -0.3 | 0.33 | 8
CC(C)n1cnc2c(NCc3ccccc3)nc(NCCO)nc21 | -23 | 3.1 | 0.38 | 5
O=C(c1ccccc1)c1ccc(-c2ccccc2)cc1 | -121 | -0.7 | 0.17 | -19
C[C@@H]1CN([C@@H](C)CO)C(=O)Cc2cc(NC(=O)Nc3ccccc3)ccc2O[C@@H]1CN(C)Cc1ccc(-c2ccccc2)cc1 | 14 | 0.3 | 0.23 | 26
C[C@@H]1CN([C@@H](C)CO)C(=O)Cc2cc(NC(=O)Cc3ccccc3)ccc2O[C@@H]1CN(C)C | 6 | 0.0 | 2.3 | 6
C[C@H]1CN([C@@H](C)CO)C(=O)c2cccc(NC(=O)Nc3ccc(C(F)(F)F)cc3)c2O[C@@H]1CN(C)Cc1ccccc1 | -19 | -1.7 | -0.47 | 5
CC1(C)[C@@H]2CC=C(CO[C@@H]3O[C@H](CO[C@@H]4O[C@@H](CO)[C@H](O)[C@H]4O)[C@@H](O)[C@H](O)[C@H]3O)[C@H]1C2 | -3 | 5.0 | -0.43 | -44
C[C@@H]1CN([C@H](C)CO)C(=O)c2cccc(NS(C)(=O)=O)c2O[C@H]1CN(C)Cc1ccc2c(c1)OCO2 | -25 | x | -0.063 | -8
CCC(C)C(=O)OCC1(c2ccc(C)cc2OC(=O)C(C)C)CO1 (configuration not stated) | -18 | -9.0 | 0.96 | 2
CC(C)C12CC1C(C)(O[C@@H]1O[C@H](CO)[C@@H](O)[C@H](O)[C@H]1O)CC2=O (some centres not stated) | -1 | x | 0.11 | x
C[C@@H]1CCCCO[C@H](CN(C)S(=O)(=O)c2ccc(Cl)cc2)[C@@H](C)CN([C@H](C)CO)C(=O)c2cc(NC(=O)CCCCCC(=O)Nc3ccccc3N)ccc2O1 | x | 2.8 | -0.38 | 7
C[C@H]1CN([C@@H](C)CO)C(=O)Cc2cc(NC(=O)Cc3ccccc3)ccc2O[C@@H]1CN(C)C(=O)Nc1ccc2c(c1)OCO2 | 2 | 2.3 | 0.42 | -7
C[C@H]1CN([C@@H](C)CO)C(=O)c2cc(NC(=O)NC3CCCCC3)ccc2O[C@@H]1CN(C)C | x | 1.4 | -0.52 | 6
COc1ccc(NC(=O)Nc2ccc3c(c2)C(=O)N([C@H](C)CO)C[C@H](C)[C@@H](CN(C)C(=O)Nc2ccccc2)O3)cc1 | 13 | -0.2 | -0.0059 | 6
CN1CCN(C(=O)CN(C)S(=O)(=O)c2ccc3ccccc3c2)CC1 | x | 2.3 | x | -3
Cc1ccc(S(=O)(=O)N(C)C[C@H]2Oc3ccc(NC(=O)CCC(F)(F)F)cc3C(=O)N([C@H](C)CO)C[C@@H]2C)cc1 | x | 0.2 | -0.091 | 0
C[C@@H]1CN([C@@H](C)CO)C(=O)c2cc(NC(=O)Nc3ccccc3)ccc2O[C@H]1CN(C)C(=O)Nc1ccc(F)cc1 | 5 | 0.7 | -0.25 | 4
C[C@@H]1CCCCO[C@H](CN(C)S(=O)(=O)c2cn(C)cn2)[C@@H](C)CN([C@H](C)CO)C(=O)c2cc(NC(=O)Nc3ccc(F)cc3)ccc2O1 | 13 | x | 0.075 | 1
C[C@H]1CN([C@@H](C)CO)C(=O)c2cccc(NS(=O)(=O)c3ccc(Cl)cc3)c2O[C@@H]1CN(C)C | -42 | x | 0.16 | -3
CC(C)OC(=O)CSc1nc2c(c(-c3ccccc3)c1C#N)CCC2 | x | -0.7 | x | -59
O=C(Nc1ccccc1C(=O)O)c1cccc(S(=O)(=O)Nc2ccccc2Cl)c1 | x | 3.0 | x | -7
CNC[C@H]1Oc2ccc(NS(=O)(=O)c3cn(C)cn3)cc2CC(=O)N([C@@H](C)CO)C[C@H]1C | 8 | 2.4 | 0.32 | -1
Cc1noc(C)c1NC(=O)N(C)C[C@@H]1Oc2ccc(NC(=O)Cn3cnnn3)cc2C(=O)N([C@H](C)CO)C[C@@H]1C | -7 | 2.4 | 0.19 | -2
C[C@H]1CN([C@@H](C)CO)C(=O)c2cccc(NC(=O)Nc3ccc(F)cc3)c2O[C@H]1CN(C)C(=O)Nc1cccc2ccccc12 | 12 | -1.5 | -0.65 | 13
Cc1ccc(C(=O)NC(=O)CSc2n[nH]c(N)n2)cc1 | x | 3.0 | x | 1
NC(=O)c1cc([N+](=O)[O-])ccc1NCc1cccnc1 | x | 3.7 | x | -55
CNC[C@H]1Oc2ccc(NS(C)(=O)=O)cc2CC(=O)N([C@@H](C)CO)C[C@H]1C | -18 | x | -0.29 | -2
Cc1ccc(S(=O)(=O)Nc2cccc3c2O[C@@H](CN(C)C(=O)Nc2cccc4ccccc24)[C@@H](C)CN([C@@H](C)CO)C3=O)cc1 | 33 | x | -0.2 | 14
CC(C)NC(=O)Nc1ccc2c(c1)C(=O)N([C@H](C)CO)C[C@@H](C)[C@@H](CN(C)C(=O)NC(C)C)O2 | 7 | 1.8 | -0.51 | -1
C[C@H](CO)N1C[C@H](C)[C@@H](CN(C)C)Oc2c(NS(=O)(=O)c3ccccc3)cccc2C1=O | -22 | 1.9 | 0.13 | -13
Cc1c(NC(=O)COc2ccccc2Cl)cccc1C(=O)O | x | 1.2 | x | 44

Continued (6 carried over from the part before).
SMILES | Hedgehog inh | PD-1 reverse act | YB-1 expr inh | MITF inh
NC(=O)c1cc([N+](=O)[O-])ccc1NCc1cccnc1 | x | 3.7 | x | -55
CNC[C@H]1Oc2ccc(NS(C)(=O)=O)cc2CC(=O)N([C@@H](C)CO)C[C@H]1C | -18 | x | -0.29 | -2
Cc1ccc(S(=O)(=O)Nc2cccc3c2O[C@@H](CN(C)C(=O)Nc2cccc4ccccc24)[C@@H](C)CN([C@@H](C)CO)C3=O)cc1 | 33 | x | -0.2 | 14
CC(C)NC(=O)Nc1ccc2c(c1)C(=O)N([C@H](C)CO)C[C@@H](C)[C@@H](CN(C)C(=O)NC(C)C)O2 | 7 | 1.8 | -0.51 | -1
C[C@H](CO)N1C[C@H](C)[C@@H](CN(C)C)Oc2c(NS(=O)(=O)c3ccccc3)cccc2C1=O | -22 | 1.9 | 0.13 | -13
Cc1c(NC(=O)COc2ccccc2Cl)cccc1C(=O)O | x | 1.2 | x | 44
C[C@@H]1CN([C@H](C)CO)C(=O)c2cc(NC(=O)CCCCCC(=O)Nc3ccccc3N)ccc2O[C@@H]1CN(C)S(=O)(=O)c1cccs1 | x | 0.0 | -0.21 | 8
Cc1ccc(NC(=O)Cn2nc(-c3cccc([N+](=O)[O-])c3)c3ccccc3c2=O)c(C)c1 | x | -8.7 | x | 43
COc1ccc(NC(=O)CSc2n[nH]c(-c3ccco3)n2)cc1 | x | 2.0 | x | -7
CNC[C@@H]1Oc2c(NS(=O)(=O)c3cn(C)cn3)cccc2C(=O)N([C@H](C)CO)C[C@@H]1C | 6 | x | -0.08 | 3
C[C@@H]1CCCCO[C@@H](CN(C)Cc2ccc(C(=O)O)cc2)[C@@H](C)CN([C@H](C)CO)C(=O)c2cc(NC(=O)CCCN(C)C)ccc2O1 | -31 | 3.5 | 0.13 | 0
C[C@H]1CN([C@@H](C)CO)C(=O)c2cc(NC(=O)Nc3ccc(C(F)(F)F)cc3)ccc2O[C@@H]1CN(C)S(=O)(=O)c1ccccc1 | x | -2.6 | 0.92 | 11
C[C@@H]1CN([C@H](C)CO)C(=O)Cc2cc(NC(=O)CCC(F)(F)F)ccc2O[C@H]1CN(C)C(=O)Nc1ccccc1 | -19 | 1.1 | -0.27 | -12
CCn1c(SCC(=O)Nc2cccc(C(F)(F)F)c2)nnc1-c1ccco1 | x | -0.4 | x | 9
CC(C)c1ccc(OCC(=O)Nc2ccccc2C#N)c(Br)c1 | x | 2.2 | x | -90
O=C1CC(O)[C@H]2[C@@H]3N1c1ccccc1[C@@]31CCN3C/C(=C/CO)[C@@H]2C[C@H]31 (some centres not stated) | -5 | x | 0.21 | x
CCc1ccccc1NC(=O)CC1CS(=O)(=O)CC1CC(=O)Nc1ccccc1CC (configuration not stated) | 13 | 0.5 | -0.0042 | -4
CS(=O)(=O)N(CC(=O)Nc1cccc(Br)c1)c1cccc(Cl)c1 | x | -1.6 | x | 4
COc1ccc(NC(=O)N(C)C[C@H]2Oc3c(NS(=O)(=O)c4ccc(Cl)cc4)cccc3C(=O)N([C@@H](C)CO)C[C@@H]2C)cc1 | -8 | 1.2 | 0.25 | 4
C[C@H](CO)N1C[C@H](C)[C@H](CN(C)Cc2ccc(-c3ccccc3)cc2)Oc2ccc(NC(=O)CCC(F)(F)F)cc2C1=O | x | x | -0.14 | 8
C[C@@H]1CN([C@@H](C)CO)C(=O)c2cc(NC(=O)CCC(F)(F)F)ccc2O[C@H]1CN(C)C(=O)Nc1ccc2c(c1)OCO2 | -35 | 0.3 | -0.41 | -10
C[C@@H]1CN([C@@H](C)CO)C(=O)Cc2cc(NC(=O)CCN3CCOCC3)ccc2O[C@@H]1CN(C)Cc1ccccc1 | 14 | 0.3 | -0.076 | -11
N#Cc1c(C(F)(F)F)cc(-c2cccs2)oc1=S | -14 | -0.7 | -0.4 | -6
C=C1C(=O)O[C@H]2C1CCC(C)=C1C(=O)C=C(C)[C@@H]12 (some centres not stated) | -9 | 1.1 | 0.12 | 0
C[C@@H]1CN([C@H](C)CO)C(=O)Cc2cc(NC(=O)Nc3ccc4c(c3)OCO4)ccc2O[C@H]1CN(C)S(=O)(=O)c1cn(C)cn1 | 6 | x | -0.12 | -3
COC(=O)c1ccc(NC(=O)CN(c2ccc(Cl)cc2C)S(C)(=O)=O)cc1 | x | 0.9 | x | -19
COc1cc([N+](=O)[O-])ccc1NC(=O)NCc1cccnc1 | x | 0.6 | x | -14
C[C@H]1CN([C@@H](C)CO)C(=O)Cc2cc(NC(=O)Cc3ccccc3)ccc2O[C@@H]1CN(C)Cc1ccc(C(F)(F)F)cc1 | -1 | -1.2 | 0.16 | 24
C=C(C)C(O)Cc1c(OC)cc2oc(=O)ccc2c1OC (configuration not stated) | -6 | 0.9 | 0.073 | -1
C[C@@H]1CCCCO[C@@H](CN(C)Cc2ccccc2)[C@@H](C)CN([C@H](C)CO)C(=O)c2cc(NS(=O)(=O)c3cn(C)cn3)ccc2O1 | 1 | 0.9 | 0.056 | -8
C[C@@H]1CN([C@@H](C)CO)C(=O)c2cc(NS(=O)(=O)c3ccc(Cl)cc3)ccc2O[C@H]1CN(C)S(=O)(=O)c1cn(C)cn1 | -7 | -1.8 | -0.12 | 5
Cc1ccc(S(=O)(=O)N(C)C[C@@H]2Oc3c(NC(=O)c4ccc(-c5nccs5)cc4)cccc3C(=O)N([C@H](C)CO)C[C@H]2C)cc1 | 50 | -1.5 | -0.12 | -5
Cc1ccc(S(=O)(=O)N(C)C[C@@H]2Oc3ccc(NC(=O)Nc4ccc(C(F)(F)F)cc4)cc3C(=O)N([C@H](C)CO)C[C@@H]2C)cc1 | 17 | -2.1 | 0.23 | 65
C[C@H]1CN([C@@H](C)CO)C(=O)c2cccc(NC(=O)Nc3ccc(C(F)(F)F)cc3)c2O[C@H]1CN(C)Cc1ccc2c(c1)OCO2 | 28 | -6.3 | 0.039 | 7
Cn1nnnc1SCC(=O)Nc1ccc(C(=O)O)cc1 | x | 1.9 | x | -19
CC(=O)Nc1ccc(Nc2ncnc3c2cnn3-c2ccc(C)cc2C)cc1 | x | -1.4 | x | -2
C[C@H](CO)N1C[C@H](C)[C@H](CN(C)C(=O)Nc2ccccc2)Oc2ccc(NC(=O)C3CC3)cc2CC1=O | -13 | 1.4 | -0.012 | -1
COc1ccc2nc(SCC(=O)Nc3cccc([N+](=O)[O-])c3)[nH]c2c1 | x | -6.6 | x | -5
C[C@H]1CN([C@@H](C)CO)C(=O)Cc2cc(NC(=O)Nc3cccc4ccccc34)ccc2O[C@@H]1CN(C)S(=O)(=O)c1cccs1 | 23 | 0.1 | 0.12 | 10

From PubChem BioAssay
